UUG fidelity = alters start codon recognition fidelity in yeast; S. cerevisiae UUG-firefly luciferase reporter, luminescence/redox ratio; AID 602363; activity score, % at 18.7 µM; hit rate 0.13% among 350,000;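 active = replicate mean at a twofold rise or more, about +100% in these data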;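 also: firefly luciferase made from a UUG start codon reports start codon fidelity; reporter light over untreated wells divided by growth signal over untreated wells; some hits fall short of that in this replicate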
MT1-MMP act inh = MT1-MMP (human) activation inhibition; GFP/RFP ratio change, % at 20 µM; AID 651647; hit rate 0.061% among 360,000; HT1080 RFP-PRO-GFP cells, GFP/RFP ratio fluorescence, overnight; percent of plate control window, DMSO zero; P50281;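 active = GFP/RFP ratio change of at least 30% with cell ATP level not reduced by more than half and red fluorescence within 50% of control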; also: strong numbers were not always called active
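Compound: 20 µM single dose, 1% DMSO / System: HT1080 RFP-PRO-GFP cells / Controls: DMSO and RFP-L50D-GFP cell wells / Read-out basis: GFP/RFP fluorescence ratio / Schedule: overnight compound exposure at 37 °C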
Rce1 inhib = inhibitors of yeast Ras-converting enzyme; Q03530; yeast membranes, quenched prenylated peptide cleavage fluorescence; calls only; hit rate 0.27% among 290,000;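 active = fall in fluorescence gain of 50% or more versus controls, with final raw signal at or below 3038400; inconclusive = same 50% fall but final raw signal above 3038400; inactive = fall in fluorescence gain under 50%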;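 also: plate controls were neutral control wells for no effect and wells lacking membranes for full effect; tested at 10 µM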
Target sequence (Q03530 whole entry, looked up): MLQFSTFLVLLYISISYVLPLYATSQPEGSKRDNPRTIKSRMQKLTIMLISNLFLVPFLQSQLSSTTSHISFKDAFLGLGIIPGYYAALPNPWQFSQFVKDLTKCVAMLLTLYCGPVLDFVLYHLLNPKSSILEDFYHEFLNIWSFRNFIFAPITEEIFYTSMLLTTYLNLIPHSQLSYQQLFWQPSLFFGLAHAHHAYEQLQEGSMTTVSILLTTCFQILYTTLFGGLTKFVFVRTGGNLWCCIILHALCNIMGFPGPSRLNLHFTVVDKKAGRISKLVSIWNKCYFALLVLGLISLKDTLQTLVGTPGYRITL
eIF4H FP inh = inhibitors of RNA binding by human eIF4H | Q15056 | eIF4H fluorescence polarization binding assay | inhibition, % at 35 µM | hit rate 0.94% among 290,000;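 active = 50% or more with normal probe brightness, or confirmed in later tests; inconclusive = above 50% with abnormal brightness, or retests that disagree; inactive = below 50% or failed in later tests; about a fifth of its hits are not listed in these tables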;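 also: calls also rest on retests at 20 µM and on dose response follow-up; 0% = protein and probe with vehicle and 100% = probe without protein; strong numbers were not always called active; many hits fall short of the cut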
CSC inhib = blocks cancer stem cells. cancer stem cell-like cells viability, luminescence. inhibition, % at 7.5 µM. hit rate 1.1% among 300,000. AID 2717;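 active = mean at 75% or more and at least half the replicates too; inconclusive = mean and replicates disagree; tested in HMLE shEcad cells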;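 also: 0% = median of negative and 100% = median of positive control wells; the first replicate is given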
Env fusion inh = HIV envelope-mediated fusion inhibition; inhibition, % at 12.3 µM; hit rate 1.1% among 360,000; HeLa-JRFL Env/CEM21 cell fusion, luciferase;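 active = mean replicate inhibition score of at least 50 and every replicate individually at or above 50; inconclusive = only one of the two criteria met; inactive = mean below 50 and not all replicates reaching 50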;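 also: 0% = plate neutral controls and 100% = maraviroc near 300 nM; one replicate is shown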
PABP FP inh = blocks human PABP binding to poly(A) RNA | P11940 | fluorescence polarization | inhibition, % at 35 µM | hit rate 1% among 290,000;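 active = 50% or more with normal probe brightness, or confirmed in later tests; inconclusive = above 50% with abnormal brightness, or retests that disagree; inactive = below 50% or failed in later tests; about a fifth of its hits are not listed in these tables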;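 also: calls also rest on retests at 20 µM and on dose response follow-up; controls were probe without protein and protein plus probe with vehicle; some compounds called inactive have numbers as strong as hits; many hits fall short of the cut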
MT1-MMP act inh RFP = also measured in MT1-MMP act inh; calls as there; RFP signal change, %; measured here: RFP expression control read;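 0 = vehicle wells; hits needed this value within 50% of zero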
Numbers without * were called inactive; i = inactive; u = inconclusive; x = no result given; + = active, no number; & = joins results of further samples.

1	COC(=O)c1ccc(CN2C(=O)NC3(CCCc4ccccc43)C2=O)o1 (stereo not given)
2	CCc1cc(C(=O)N(CC(C)C)c2c(N)n(Cc3ccccc3)c(=O)[nH]c2=O)sc1C
3	Oc1ccc2ccccc2c1C=NCc1ccccc1
4	Cc1ccccc1NC(=O)C1C2CCC(O2)C1C(=O)O (stereo not given)
5	CNC(=O)CCCCCNS(=O)(=O)c1ccc(C)cc1
6	CSc1nnc(C(C)(C)C)c(=O)n1/N=C/c1ccc(Cl)cc1
7	COc1ccc(NC(=O)N(C)C[C@H]2OCCCC[C@H](C)Oc3ccc(NS(=O)(=O)c4cn(C)cn4)cc3C(=O)N([C@H](C)CO)C[C@@H]2C)cc1
8	COc1ccccc1CNC(=O)COc1ccccc1C
9	CCOC(=O)[C@H]1[C@H]2COc3ccc(OC)cc3[C@@H]2N2C(=O)CN(Cc3ccc(OC)cc3)C(=O)[C@@]12C
10	O=C(O)COCC(=O)Nc1ccccc1-c1ccccc1

Assay by compound	1	2	3	4	5	6	7	8	9	10
UUG fidelity	-12.0	-11.9	x	-12.7	-3.5	-14.2	5.3&-18.4	-11.6	2.3	x
MT1-MMP act inh	-4.9	-0.2	2.4	2.8	0.0	2.2	-1.4	-1.8	-3.3	5.4
MT1-MMP act inh RFP	-2.1	-0.5	12.4	3.2	2.1	-0.5	3.3	-1.8	0.4	8.4
Rce1 inhib	i	i	i	i	i	i	x	i	x	i
eIF4H FP inh	-7.6	x	-7.4	6.1	-7.8	1.0	x	-8.0	x	-1.4
CSC inhib	-15.6	2.4	9.1	14.4	-16.5	5.5	x	8.4	17.4	-6.5
Env fusion inh	x	-119.3	2.6	0.6	-268.4	-2.7	-1.3	-6.5	-66.8	4.4
PABP FP inh	-1.4	x	1.3	-1.9	-8.8	6.8	x	5.6	x	9.2

11	CC(OC(=O)CCC(=O)c1ccc(Cl)s1)C(=O)NC1(C#N)CCCCC1 (stereo not given)
12	N#CC1=C(N)OC2=C(C(=O)CCC2)C1C1CC=CCC1 (stereo not given)
13	CCCn1nnc(NC(=O)COc2ccc(C3CCCCC3)cc2)n1
14	Cc1c(NC(=O)C(C)OC(=O)CC2CC3CCC2C3)c(=O)n(-c2ccccc2)n1C (stereo not given)
15	CN(c1ncnc(N)c1[N+](=O)[O-])C1CCS(=O)(=O)C1 (stereo not given)
16	CN1CCN(c2ccc(CNC[C@H]3O[C@@H](n4cnc5c(=O)[nH]c(N)nc54)[C@H](O)[C@@H]3O)c(F)c2)CC1
17	Cc1ccc(S(=O)(=O)N2C[C@@H]3c4ccccc4N(S(=O)(=O)c4ccc(C)cc4)[C@@H]3[C@@H](C)C2CC(=O)c2ccccc2)cc1 (stereo not given in full)
18	O=C(c1ccc2c(c1)CCN2S(=O)(=O)c1ccccc1)N1CCN(c2ccc(F)cc2)CC1
19	COCCCNC(=O)CSc1nc2ccccc2c(=O)n1CCc1ccc(S(N)(=O)=O)cc1
20	CC(=O)c1sc2nsc(SCCN3CCCC3)c2c1N

Assay by compound	11	12	13	14	15	16	17	18	19	20
UUG fidelity	-16.3	-10.4	-15.1	x	-25.4	-10.5	-18.5	-16.4	-17.8	x
MT1-MMP act inh	-0.5	-2.5	-3.0	1.9	-11.7	2.0	-0.3	7.6	-4.2	-11.1
MT1-MMP act inh RFP	8.0	0.6	-7.7	-2.5	-7.2	2.1	6.2	2.7	-1.1	-3.1
Rce1 inhib	x	x	i	i	i	x	x	i	i	i
eIF4H FP inh	x	7.9	-9.0	2.2	4.5	x	x	-13.9	-2.5	13.6
CSC inhib	11.0	-10.4	1.6	-14.1	-5.4	x	x	4.4	-1.2	8.4
Env fusion inh	x	x	x	6.2	59.1*	11.8	3.8	4.8	11.2	4.5
PABP FP inh	x	-6.6	-2.2	-9.7	-5.5	x	x	-2.2	2.0	26.9

21	COC(=O)c1sccc1NC(=O)c1c(Cl)cnn1C
22	c1coc(-c2ccnc3ncnn23)c1
23	COc1ccc(S(=O)(=O)N2CCOC2CNC(=O)C(=O)NCCCc2ccccc2)cc1 (stereo not given)
24	O=C(O)c1ccc(Nc2cccc(F)c2)c([N+](=O)[O-])c1
25	Cc1cc(NC(=O)c2cc(-c3cccc(OCC(C)C)c3)nc3ccccc23)no1
26	O=C(N/N=C/c1sc(=O)[nH]c1-[n+]1ccc2ccccc2c1)c1ccccc1[O-]
27	CCN(CC)C(=O)C1=C(C)N(CCCOC)C(=O)C(CC(=O)NCc2cccs2)C1 (stereo not given)
28	N#C/C(=C\c1ccccc1OCC(=O)O)c1nc2ccccc2[nH]1
29	CCc1nc2ccc(C(=O)NCc3ccc(OC)cc3)cn2c1N(CC)CCOC
30	Nc1nc(Br)c2ccccc2c1-c1ccccc1

Assay by compound	21	22	23	24	25	26	27	28	29	30
UUG fidelity	-12.1	x	-2.6	-11.2	-9.5	-9.4	-27.1	-15.1	-13.2	-29.9
MT1-MMP act inh	-3.1	7.0	-3.0	-4.1	-4.3	-66.0	2.5	-0.9	-2.4	-11.4
MT1-MMP act inh RFP	0.4	0.9	-12.3	-0.9	-0.8	-0.7	6.0	2.6	3.2	-4.6
Rce1 inhib	i	+	i	i	i	i	x	i	x	i
eIF4H FP inh	6.8	-12.2	-0.7	12.7	-0.6	x	x	-1.4	x	-11.2
CSC inhib	-0.1	-5.7	x	-5.6	x	-1.3	x	-1.9	x	-17.5
Env fusion inh	-11.4	-22.4	-2.1	3.1	15.5	-4.2	-0.2	-9.5	-44.0	11.1
PABP FP inh	9.6	8.6	-6.3	1.1	4.8	x	x	1.1	x	1.6

Rewritten with two lines to a compound: entries from further up
Results follow in this order: UUG fidelity	MT1-MMP act inh	MT1-MMP act inh RFP	Rce1 inhib	eIF4H FP inh	CSC inhib	Env fusion inh	PABP FP inh
#24 O=C(O)c1ccc(Nc2cccc(F)c2)c([N+](=O)[O-])c1
 : -11.2	-4.1	-0.9	i	12.7	-5.6	3.1	1.1
#25 Cc1cc(NC(=O)c2cc(-c3cccc(OCC(C)C)c3)nc3ccccc23)no1
 : -9.5	-4.3	-0.8	i	-0.6	x	15.5	4.8

Following part:
31	O=C(NC1CCCC1)c1ccc(Br)o1
32	Cc1cc(S(=O)(=O)Nc2c(C)nn(C)c2C)c(Cl)cc1Cl
33	Cc1ccc2nc(N3CCN(c4ccccc4)CC3)c(C=O)c(=O)n2c1
34	c1ccc(CC2CCN(Cc3ccccn3)CC2)cc1
35	N=c1c2c3c(sc2nc2n1CCCCC2)CCCCC3
36	O=C(OCc1ccc(O)cc1)c1c(-c2ccsc2)oc2ccc(N3CCOCC3)cc12
37	Cc1nn(-c2nnc(NCc3ccccc3)nn2)c(C)c1Br
38	O=C(N/N=C\c1cccnc1)c1cc(-c2ccccc2)nc2c(Cl)cccc12
39	COn1c(-c2ccc(Cl)cc2Cl)nc2ncccc21
40	CCOC(=O)OCC(=O)C1(O)CCC2C3CCC4=CC(=O)CCC4(C)C3C(O)CC21C (stereo not given)

Assay by compound	31	32	33	34	35	36	37	38	39	40
UUG fidelity	-21.6	-14.5	40.2	x	10.0	-6.6	2.5	-4.4	x	-0.9
MT1-MMP act inh	-3.4	3.6	4.1	1.8	3.1	-0.6	6.0	-5.5	-5.0	-2.4
MT1-MMP act inh RFP	-1.2	-5.3	5.5	7.9	-2.0	-0.9	9.8	-2.3	-1.5	3.0
Rce1 inhib	i	i	i	i	x	i	i	i	i	x
eIF4H FP inh	-7.2	7.9	u	0.1	-5.9	-7.3	7.4	-1.0	-5.6	x
CSC inhib	13.1	3.8	0.6	-2.5	45.2	74.2	-6.1	59.7	1.3	x
Env fusion inh	22.1	10.1	-0.5	-0.2	x	-20.7	x	-8.0	15.9	-263.7
PABP FP inh	-6.8	-1.4	u	-2.5	3.5	-0.1	-5.1	-12.1	-1.1	x

41	O=C(O)c1ccc(NC(=O)c2ccc(COc3ccccc3)o2)cc1
42	CCOC(=O)N1CCC(N2CCCC(C(=O)c3cccc(OC)c3)C2)CC1 (stereo not given)
43	COCCCNC(=O)c1ccc(-c2c(C)noc2C)c2ccoc12
44	O=C(c1cc(C(=O)N2CCOCC2)c2nc3ccccc3n2c1)c1cc(Cl)cc(Cl)c1O
45	Cc1ccccc1C(=O)O
46	O=C(Nc1ccnn1C1CCN(Cc2cc(Cl)ccc2O)CC1)c1cccnc1
47	O=C(O)C(=Cc1ccncc1)c1cccc2ccccc12
48	Cc1nnc2n(C)c(=O)c3c4c(sc3n12)COC(C)(C)C4
49	Cc1ccc(C)n1-n1c(C)nc2scc(-c3ccccc3)c2c1=O
50	NC(=O)C1CCN(C(=O)CN2CCCc3ccccc32)CC1

Assay by compound	41	42	43	44	45	46	47	48	49	50
UUG fidelity	-24.5	10.7	10.2	x	-19.2	-1.8	-12.3	x	16.0	-1.4
MT1-MMP act inh	3.6	-12.6	12.9	-16.9	-0.1	-1.0	-1.6	2.9	0.5	-6.5
MT1-MMP act inh RFP	2.9	0.1	7.4	-5.7	3.9	-2.6	-0.7	2.6	-2.6	1.6
Rce1 inhib	i	i	x	i	x	i	x	i	i	i
eIF4H FP inh	-4.9	-1.9	x	-2.2	x	-6.8	x	x	4.2	78.2*
CSC inhib	-0.5	3.1	x	2.4	-11.8	-8.1	x	-9.8	2.5	-7.1
Env fusion inh	2.0	-43.1	-11.0	10.8	x	-1.4	-26.8	-7.1	-6.7	x
PABP FP inh	4.0	5.4	x	6.0	x	0.4	x	x	-2.3	66.2*

51	COc1ccc(OC)c(C2/C(=C(/O)c3ccccc3)C(=O)C(=O)N2Cc2ccco2)c1 (stereo not given)
52	Cc1cccc(N/C(N)=N/c2nc(C)c(Cc3ccccc3)c(=O)[nH]2)c1
53	Cc1cc(C)cc(NC(=O)COC(=O)c2cc(=O)[nH]c(=O)[nH]2)c1
54	C[C@@]12C(=O)Nc3ccc(Br)cc3C(=O)N1[C@H]1c3ccccc3OC[C@@H]1[C@@H]2c1ccccc1
55	Cc1sc(N(C(=O)CCc2ccccc2)c2ccc(C(=O)O)cc2)nc1-c1ccccc1
56	CC1(C(=O)NCc2cccnc2)CCN1C(=O)Cc1cccs1 (stereo not given)

Assay by compound	51	52	53	54	55	56
UUG fidelity	x	x	x	-19.8	x	-28.4
MT1-MMP act inh	2.1	-3.5	2.8	-9.1	5.5	1.2
MT1-MMP act inh RFP	8.8	-3.5	3.5	-5.0	-6.8	7.8
Rce1 inhib	i	i	i	x	i	x
eIF4H FP inh	-3.6	-10.4	-5.7	x	25.3	x
CSC inhib	4.7	3.1	7.9	23.8	23.2	x
Env fusion inh	-7.9	8.1	1.5	x	-6.9	-10.1
PABP FP inh	18.1	-5.7	-2.1	x	-5.4	x

Taken from above:
For UUG fidelity, C[C@@]12C(=O)Nc3ccc(Br)cc3C(=O)N1[C@H]1c3ccccc3OC[C@@H]1[C@@H]2c1ccccc1 reads -19.8
For MT1-MMP act inh, Cc1sc(N(C(=O)CCc2ccccc2)c2ccc(C(=O)O)cc2)nc1-c1ccccc1 reads 5.5
For MT1-MMP act inh, Cc1cccc(N/C(N)=N/c2nc(C)c(Cc3ccccc3)c(=O)[nH]2)c1 reads -3.5
For PABP FP inh, Cc1cc(C)cc(NC(=O)COC(=O)c2cc(=O)[nH]c(=O)[nH]2)c1 reads -2.1
For MT1-MMP act inh, CC1(C(=O)NCc2cccnc2)CCN1C(=O)Cc1cccs1 (stereo not given) reads 1.2
For MT1-MMP act inh RFP, COc1ccc(OC)c(C2/C(=C(/O)c3ccccc3)C(=O)C(=O)N2Cc2ccco2)c1 (stereo not given) reads 8.8

An excerpt; rates above refer to the full screens.
